Source: PubChem
ClpP mod: qHTS Assay for Activators of ClpP; ATP-dependent Clp protease proteolytic subunit (Bacillus subtilis (strain 168)), P80244; purified B. subtilis ClpP, FRET peptide cleavage, 20 min; Potency, µM (series often up to 57.5 µM), inactives show at the highest dose activity change, negative = active; hit rate 1.9% among 340,000; AID 651965, 2013; active = well fitted falling curve with a large enough effect; inconclusive = small, poorly fitted or top-dose-only effect; inactive = no such curve, though single readings can be large or run the other way; also: the source files actives as falling curves though it sought activators and does not explain the sign; nearly all actives have a fitted effect of over 65% in size; many hits overshoot -100%
Target sequence (P80244 whole entry, looked up): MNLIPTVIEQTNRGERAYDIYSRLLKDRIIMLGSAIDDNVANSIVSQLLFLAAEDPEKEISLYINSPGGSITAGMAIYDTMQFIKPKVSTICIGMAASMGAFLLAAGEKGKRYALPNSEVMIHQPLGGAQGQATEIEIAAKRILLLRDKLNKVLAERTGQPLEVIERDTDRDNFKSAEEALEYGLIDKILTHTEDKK
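FRET quenching reversal measured ClpP activation: 10 microg/mL B. subtilis ClpP at pH 8 with the FRET-FV decapeptide, read at 430 nm after 320 nm excitation. The 20-min minus 0-min signal was scaled between DMSO/no-enzyme wells and ADEP (5.8 microM final).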
Starred values were filed as active, the others as inactive. Potency is read from the fitted curve at half-maximal effect.

Screening CC(C)CCNC(=O)c1ccc2c(c1)N(Cc1ccccc1F)C(=O)c1ccccc1S2=O (stereo unspecified) returned ClpP mod 0.3%.
For CCOC(=O)c1cccc(NC(=O)c2cc3c(Cl)nc4ccc(C)cc4c3s2)c1 the results were ClpP mod -2.4%.
For CC1=C(c2ccc(C)c(C)c2)S(=O)(=O)N(Cc2ccc(C(=O)NCc3cccc(C)c3)cc2)C1=O the results were ClpP mod 10µM*.
For COc1cc(Cl)c(C)cc1NC(=O)CCc1nc2cccnc2n1-c1ccccc1 the results were ClpP mod -0.6%.
Screening Cc1cccc(N2CCN(C(=O)c3ccc(CS(=O)c4cccc(Cl)c4)o3)CC2)c1C (stereo unspecified) returned ClpP mod -0.3%.
`CCC(C)n1c(=O)c2sccc2n2c(CCCC(=O)Nc3ccc(F)cc3)nnc12` (stereo unspecified) gave ClpP mod -7.6%.
Screening CCOC(=O)C1=C(CN2CCN(c3ccc(Cl)cc3)CC2)NC(=O)NC1c1ccc(OC)cc1 (stereo unspecified) returned ClpP mod -2.0%.
`CC(NC(=O)CN1C(=O)c2cccnc2Oc2ccc(Cl)cc21)c1ccccc1` (stereo unspecified) gave ClpP mod -1.5%.
Screening CC(C)CCNC(=O)CN1C(=O)c2cccnc2Oc2ccccc21 returned ClpP mod -0.7%.
Screening CCS(=O)(=O)c1ncc(N(Cc2ccccc2)Cc2ccco2)c(C(=O)Nc2ccc(C)c(C)c2)n1 returned ClpP mod -5.4%.
For Cc1cc(C)nc(-n2nc(C)c3c2NC(=O)CC3c2cc(F)ccc2F)n1 (stereo unspecified) the results were ClpP mod 1.9%.
`CCOc1cc(C(=O)Nc2ccc(S(=O)(=O)Nc3cc(OC)nc(OC)n3)cc2)cc(OCC)c1OCC` gave ClpP mod -0.7%.
Screening Cc1ccccc1CSc1nc2nc(C)c(Cc3ccccc3)c(C)n2n1 returned ClpP mod inconclusive.
`CCOc1ccc(CCNC(=O)CN2C(=O)C(CC)Oc3ccccc32)cc1OCC` (stereo unspecified) gave ClpP mod -2.4%.
`Cc1ccc(/C=C/c2onc(C)c2S(=O)(=O)N2CCC(C(=O)Nc3cccc(C#N)c3)CC2)cc1` gave ClpP mod -4.5%.
`COc1ccc(NC(=O)CCc2c(C)nn(-c3ccc(N4CCCCC4)nn3)c2C)cc1Cl` gave ClpP mod -4.3%.
CN(C)c1ccc(CNC(=O)c2cccn2-c2nnc(N3CCCCC3)s2)cc1 was read as ClpP mod -6.7%.
For CC(=O)Nc1nonc1-c1nc2ccccc2n1Cc1ccccc1Br the results were ClpP mod 25.1µM*.
For CCOc1ccc(NC(=O)C(=O)NCCc2ccccc2)cc1 the results were ClpP mod 1.6%.
`CCc1ccc(-n2c(=O)c3cccnc3n2CC(=O)Nc2ccccc2C(F)(F)F)cc1` gave ClpP mod 3.8%.

Gathered by group: the compounds so far with sulfur
Screening CC(C)CCNC(=O)c1ccc2c(c1)N(Cc1ccccc1F)C(=O)c1ccccc1S2=O (stereo unspecified) returned ClpP mod 0.3%.
For CCOC(=O)c1cccc(NC(=O)c2cc3c(Cl)nc4ccc(C)cc4c3s2)c1 the results were ClpP mod -2.4%.
For CC1=C(c2ccc(C)c(C)c2)S(=O)(=O)N(Cc2ccc(C(=O)NCc3cccc(C)c3)cc2)C1=O the results were ClpP mod 10µM*.
Screening Cc1cccc(N2CCN(C(=O)c3ccc(CS(=O)c4cccc(Cl)c4)o3)CC2)c1C (stereo unspecified) returned ClpP mod -0.3%.
`CCC(C)n1c(=O)c2sccc2n2c(CCCC(=O)Nc3ccc(F)cc3)nnc12` (stereo unspecified) gave ClpP mod -7.6%.
Screening CCS(=O)(=O)c1ncc(N(Cc2ccccc2)Cc2ccco2)c(C(=O)Nc2ccc(C)c(C)c2)n1 returned ClpP mod -5.4%.
`CCOc1cc(C(=O)Nc2ccc(S(=O)(=O)Nc3cc(OC)nc(OC)n3)cc2)cc(OCC)c1OCC` gave ClpP mod -0.7%.
Screening Cc1ccccc1CSc1nc2nc(C)c(Cc3ccccc3)c(C)n2n1 returned ClpP mod inconclusive.
`Cc1ccc(/C=C/c2onc(C)c2S(=O)(=O)N2CCC(C(=O)Nc3cccc(C#N)c3)CC2)cc1` gave ClpP mod -4.5%.
CN(C)c1ccc(CNC(=O)c2cccn2-c2nnc(N3CCCCC3)s2)cc1 was read as ClpP mod -6.7%.

Next records.
Cc1c(Cl)cccc1NC(=O)CSc1nc(=O)[nH]c2c1CCCC2 was read as ClpP mod 0.1%.
Cn1cnc2c(=O)oc3ccc(S(=O)(=O)N4CCN(c5ccccc5F)CC4)cc3c21 was read as ClpP mod -4.5%.
O=C(Cn1ccc2cc(S(=O)(=O)N3CCCCCC3)ccc21)NCc1ccccc1Cl was read as ClpP mod -20.6%.
Screening CCCCSCCCNC(=O)C1CCN(Cc2nc(-c3ccc(CC)cc3)oc2C)CC1 returned ClpP mod -0.7%.
CCOc1cc2[nH]c(=O)n(CCCCCC(=O)NC(C)CC)c(=O)c2cc1OCC (stereo unspecified) was read as ClpP mod 4.8%.
`CC(=O)OC1=CN(Cc2ccccc2)S(=O)(=O)c2ccccc21` gave ClpP mod -3.6%.
Cc1oc2ccc(O)c(CN(C)Cc3ccccc3)c2c1C(=O)Nc1cccc(Cl)c1C was read as ClpP mod inconclusive.
O=C(Nc1ccc(NC(=O)c2cc3ccccc3o2)cc1)c1ccccc1 was read as ClpP mod -4.8%.
`COc1cccc(Cn2c(CNC(=O)C(C)C)nc3cccnc32)c1` gave ClpP mod -5.5%.
COc1ccc(OC)c(NS(=O)(=O)c2ccccc2)c1 was read as ClpP mod -2.4%.
For Cc1ccc(NC(=O)Nc2c(C)n(C)n(-c3ccccc3)c2=O)c(Cl)c1 the results were ClpP mod -1.0%.
`COc1c(Cl)cc(Cl)cc1C(=O)Nc1cccc2cccnc12` gave ClpP mod 0.0%.
`O=C(NCCCN1CCN(c2ccccc2)CC1)c1sc2ncccc2c1-n1cccc1` gave ClpP mod -0.1%.
Screening CN(C)c1ccc(/C=C2\C=Cc3ccccc32)cc1 returned ClpP mod 3.0%.
For Cc1cc(=O)[nH]c2nnc(SCCC(C)C)n12 the results were ClpP mod -1.1%.
For CCCN(C(=O)c1c(C)oc2ncn(CC(C)C)c(=O)c12)c1ccccc1C the results were ClpP mod -0.2%.
Screening O=C(CN1C(=O)c2cccnc2Oc2ccc(Cl)cc21)Nc1cccc(C(F)(F)F)c1 returned ClpP mod -3.6%.
`CCOC(=O)c1ccc(NC(=O)CCCc2nc(-c3ccccc3Cl)no2)cc1` gave ClpP mod -1.1%.
`CC(C)NC(=O)C1CCN(c2nc3ccccc3nc2C(F)(F)F)CC1` gave ClpP mod -4.6%.
Screening Cc1ccc(-n2nc(C)c3c(C)cc(=O)n(CC(=O)Nc4ccc(C(C)C)cc4)c32)cc1 returned ClpP mod 1.6%.
CCOC(=O)c1ccc(NC(=O)c2nc(SCc3ccc(F)cc3)ncc2Cl)cc1 was read as ClpP mod -16.6%.
`CN(C(=O)CSc1nc2ccccc2n1CC(=O)N(C)C1CCCCC1)c1ccc(F)cc1` gave ClpP mod -5.0%.
For Cc1ccc(CNC(=O)Nc2cc(C(=O)NCc3ccc(C(C)C)cc3)ccc2N2CCCC2)cc1 the results were ClpP mod -2.3%.
COc1ccc(-n2ccnc(NCc3ccccc3Cl)c2=O)cc1OC was read as ClpP mod 195.6%.
`Cc1ccc(-c2cc(C(=O)Oc3ccccc3)c3cccc(C)c3n2)cc1` gave ClpP mod -16.3%.
Screening Cc1ccc2c(/C=C/c3ccc(N(C)C)cc3)ccnc2c1C returned ClpP mod 0.9%.
For O=C(C[n+]1cccc(Br)c1)c1ccc(I)cc1 the results were ClpP mod -0.4%.
O=C(Nc1ccc(Br)cc1F)c1cc(S(=O)(=O)NC2CCCC2)ccc1F was read as ClpP mod -3.2%.
For COc1cccc(CNC(=O)C2CCCN(S(=O)(=O)c3cn(C)cn3)C2)c1 (stereo unspecified) the results were ClpP mod 1.2%.
Screening Cc1ccc2oc(=O)n(Cc3ccccc3Cl)c2c1 returned ClpP mod -2.8%.
Cc1cccc(Cn2c(=O)n(Cc3ccc4c(c3)OCO4)c(=O)c3oc4ccccc4c32)c1 was read as ClpP mod 1.3%.
`Cc1sc2ccccc2[n+]1CC(=O)c1ccc(F)cc1` gave ClpP mod -3.2%.
For CCc1ccc(CNC(=O)c2cnc3sc(N4CCCC4)nn3c2=O)cc1 the results were ClpP mod inconclusive.
CC(=O)c1cccc(NC(=O)CN(c2cc(C)cc(C)c2)S(=O)(=O)c2c(C)noc2C)c1 was read as ClpP mod -1.8%.
`Cc1ccc(CNc2ccc(-c3nc(-c4ccncc4)no3)cc2[N+](=O)[O-])cc1` gave ClpP mod -2.0%.
Screening Cc1ccc(NC(=O)Cn2c(=O)n(-c3ccc(Cl)c(Cl)c3)c(=O)c3c(C)c(C)sc32)c(C)c1 returned ClpP mod 0.1%.
Screening Cc1ccc2occ(CC(=O)N(Cc3ccccc3Cl)C3CCS(=O)(=O)C3)c2c1 (stereo unspecified) returned ClpP mod 1.3%.
`CCOC(=O)C1CCN(C(=O)Cn2nc(C)n3c(cc4c(OC)cccc43)c2=O)CC1` gave ClpP mod 2.82µM*.
For Cc1ccc(NS(=O)(=O)c2cc(Br)cc3c2N(C(=O)C2CC2)CC3)cc1C the results were ClpP mod -3.1%.
`CCOc1ccccc1-c1nc(C(N)=O)c2c(n1)n(-c1ccc3c(c1)OCO3)c(=O)n2C` gave ClpP mod -8.7%.
For COc1cc(/C=C/c2nc3ccccc3nc2/C=C/c2cc(OC)c(OC)c(OC)c2)cc(OC)c1OC the results were ClpP mod -0.8%.
Screening O=C(NCCC1=CCCCC1)c1ccc2c(c1)N(Cc1cccc(Cl)c1)C(=O)c1ccccc1S2(=O)=O returned ClpP mod -3.0%.
`CCc1ccc(NC(=O)CSc2nccn2-c2cccc(C)c2C)cc1` gave ClpP mod -0.6%.
For CC(=O)Nc1cccc(NC(=O)CSc2cn(CC(=O)N3CCCCCC3)c3ccccc23)c1 the results were ClpP mod -3.1%.
`CCOc1ccc(N2CC(c3nc4ccccc4n3Cc3cccc(Cl)c3)CC2=O)cc1` (stereo unspecified) gave ClpP mod -2.9%.
For CCOc1ccc(CNC(=O)c2ccc3c(c2)c(C)c(C)n3Cc2ccccc2)cc1OC the results were ClpP mod -28.7%.
For CCCCCNC(=O)c1ccc2c(c1)ncn2-c1cccc(C)c1 the results were ClpP mod -2.4%.
For Cc1ccc(NS(=O)(=O)c2c(C(=O)N3CCC(C)CC3)c(C)n(C)c2C)cc1Cl the results were ClpP mod 0.3%.
`COc1ccc(C2CC(=O)c3cc(-c4nc(-c5cccc([N+](=O)[O-])c5)cs4)c(=O)n(-c4ccccc4N)c3C2)cc1` (stereo unspecified) gave ClpP mod 1.5%.
Screening COc1ccccc1CNC(=O)CC(c1ccc(C)cc1)N1Cc2ccccc2C1=O (stereo unspecified) returned ClpP mod -1.2%.
For COc1cccc(CNC(=O)Cn2c(=O)oc3cc(S(=O)(=O)N4CCCCCC4)ccc32)c1 the results were ClpP mod 1.1%.
Cc1ccc(C(c2cccc(Br)c2)c2c(C)[nH]c3ccccc23)s1 (stereo unspecified) was read as ClpP mod 1.9%.
Screening CCOC(=O)c1ccc(-c2ccc(/C=C(\C#N)C(=O)Nc3ccc(OCC)cc3)o2)cc1 returned ClpP mod 1.6%.
`O=c1oc2ccccc2cc1-c1nc(-c2cccs2)no1` gave ClpP mod -6.2%.
For Cc1cccc(NC(=O)CSc2nc(-c3ccccc3)cc(=O)[nH]2)c1C the results were ClpP mod -2.4%.
`COc1ccc(C2C(=O)N(C3CCCCC3)CC(=O)N2CCc2ccc(OC)c(OC)c2)cc1` (stereo unspecified) gave ClpP mod 0.5%.
Screening CCOC(=O)N1CCC(NC(=O)c2cnn(-c3cccc(Cl)c3C)c2C2CCN(C(=O)OC(C)(C)C)CC2)CC1 returned ClpP mod 1.8%.
Screening COc1ccc(Cn2c(C(=O)O)c(CNCc3ccco3)c3ccc(OC)cc32)cc1 returned ClpP mod -22.4%.
`Cc1ccc2oc(C(=O)Nc3sc4c(c3C(=O)NCc3ccco3)CCC4)cc(=O)c2c1` gave ClpP mod 1.4%.
`COc1ccc2c(c1)C=C(C(=O)NCc1cc(Br)ccc1OC)CO2` gave ClpP mod -6.3%.
For Cc1cc(C)cc(NC(=O)Nc2cccs2)c1 the results were ClpP mod 4.3%.
`O=S(=O)(c1ccc2nc(Nc3ccc(Br)cc3F)ccc2c1)N1CCCC1` gave ClpP mod inconclusive.
Screening CC(=O)c1ccc(NC(=O)c2cn3c4c(ccc(Cl)c4c2=O)OC(C)C3)cc1 (stereo unspecified) returned ClpP mod -8.6%.
CC(=O)N1c2c(cc(Br)cc2S(=O)(=O)Nc2ccc(OC(F)(F)F)cc2)CC1C (stereo unspecified) was read as ClpP mod -2.2%.

Not all compounds are listed (hit frequency here may not be typical).
